# Assay outcomes: PubChem BioAssay, Vanderbilt University
# GIRK2 activ = GIRK2 channel activation | P48051 | HEK293-GIRK2 thallium flux, Thallos fluorescence | calls only for hits at 25 µM | hit rate 0.05% among 63,000 | AID 1259325;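 active = among the strongest 0.2% of first-round signals and kept after retests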;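 note: first round at about 10 µM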
# Target sequence (P48051 whole entry, looked up): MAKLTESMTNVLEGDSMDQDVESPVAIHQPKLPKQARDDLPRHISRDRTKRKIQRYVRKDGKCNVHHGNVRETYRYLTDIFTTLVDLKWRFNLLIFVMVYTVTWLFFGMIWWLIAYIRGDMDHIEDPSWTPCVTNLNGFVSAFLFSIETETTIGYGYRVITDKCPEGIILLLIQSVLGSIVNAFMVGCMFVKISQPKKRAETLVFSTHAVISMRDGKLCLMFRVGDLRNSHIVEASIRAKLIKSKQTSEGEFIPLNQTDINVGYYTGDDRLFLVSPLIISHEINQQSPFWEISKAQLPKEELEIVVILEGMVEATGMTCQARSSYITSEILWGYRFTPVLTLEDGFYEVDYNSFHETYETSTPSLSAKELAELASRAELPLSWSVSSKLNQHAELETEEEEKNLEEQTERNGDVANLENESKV
# Calls only; i = inactive. Not all compounds are listed. The share of hits here may be higher or lower than overall.
Structure | GIRK2 activ
COC(=O)c1ccc(CN(c2ccc(Cl)cc2)S(=O)(=O)c2ccc3nncn3c2)o1 | i
O=C(NCCn1nc(-c2ccco2)ccc1=O)C1(c2cccs2)CCCC1 | i
CCOc1ccc(-c2noc(CN3C(=O)COc4cc(C(C)(C)C)ccc43)n2)cc1 | i
COc1cc(Cn2nc(-c3cccs3)c3sc(N4CCOCC4)nc3c2=O)cc(OC)c1 | i
O=C(Cn1cnc2c([nH]c3ccccc32)c1=O)NCc1ccco1 | i
CC(C)Oc1ccc(-c2noc(CCn3nc(-c4ccc5c(c4)OCO5)ccc3=O)n2)cc1 | i
CCc1ccc(C(=O)Nc2cnc(N3CCN(c4ccccn4)CC3)nc2)cc1 | i
CCCCN1CC(c2nc3ccccc3n2CCOc2ccccc2C)CC1=O (centres undefined) | i
COc1nn(C)cc1C(=O)Nc1ccc(C(=O)N2CCN(C(=O)c3ccco3)CC2)cc1 | i
O=C(Nc1ccc2c(c1)CCCN2C(=O)C1CC1)c1nc2ccccc2s1 | i

# Remaining list, next part:
Structure | GIRK2 activ
Cc1ccc(NC(=O)CSc2nc3c(c(=O)[nH]2)CN(Cc2ccccc2)CC3)c(Br)c1 | i
COC(=O)N1CCC(CNC(=O)c2cc(Cl)ccc2Cl)CC1 | i
CCOc1ccc2ccccc2c1C(=O)NCc1cc(C)oc1C | i
O=C(Nc1nc(CCC(=O)N2CCN(c3cccc(C(F)(F)F)c3)CC2)cs1)c1ccco1 | i
O=C(Nc1ccccc1C(F)(F)F)N1CCN(c2nc3c(F)cc(F)cc3s2)CC1 | i
COc1ccccc1C(=O)NC1CC(=O)N(c2cccc(F)c2)C1 (centres undefined) | i
COc1ccccc1Cc1nc(-c2cn(-c3ccc(C)cc3)nn2)no1 | i
O=C(c1ccc(Br)cc1)N1CCCCCC1 | i
O=C(c1ccc(S(=O)(=O)NCc2cccnc2)o1)N1CCc2ccccc21 | i
O=C(/C=C/c1ccsc1)NCC1CCN(C(=O)Oc2ccccc2)CC1 | i

# (next part)
Structure | GIRK2 activ
Cc1ccccc1OCc1ccc(C(=O)N(C)C2CCS(=O)(=O)C2)o1 (centres undefined) | i
N#Cc1nc(-c2ccc(Cl)cc2)oc1N1CCN(C(=O)c2ccccc2F)CC1 | i
CCN1CCc2c(sc(NC(=O)c3nc4ccccc4s3)c2-c2nc3ccccc3s2)C1 | i
Cc1ccccc1NC(=O)NCc1cc(-c2ccncc2)n(C2CCCC2)n1 | i
COc1ccc(NC(=O)N2CCN(c3ccc(C)nn3)CC2)c(C)c1 | i
COc1ccc(OC)c(C(O)CN2CCN(c3cc(C)ccc3C)CC2)c1 (centres undefined) | i
O=C(Cn1nc2ccc(Sc3cccc(F)c3)nn2c1=O)NCc1ccc(Cl)cc1 | i
O=C(Cn1nc(-c2cccc(Br)c2)ccc1=O)N1CCCC1 | i
CC(C)(C)c1cc(NC(=O)C2(c3ccccc3)CCOCC2)on1 | i
COCCNC(=O)Nc1ccccc1NC(=O)c1ccccc1Cl | i

# Next compounds.
Structure | GIRK2 activ
CS(=O)(=O)N1CCC(CSCc2ccco2)CC1 | i
Cc1nn(C)c(C)c1S(=O)(=O)NCCC(O)c1ccc2c(c1)OCO2 (centres undefined) | i
CC(=O)Nc1cccc(C2=NN(C(=O)c3cccs3)C(c3ccco3)C2)c1 (centres undefined) | i
Cc1ccc(C(O)CNC(=O)c2cccn(C)c2=O)o1 (centres undefined) | i
COc1cccc(-n2c(=S)sc3c(=O)[nH]c(SCC(=O)Nc4ccccc4C)nc32)c1 | i
O=C(CSc1ccc(F)cc1)NCCc1csc(-n2cccn2)n1 | i
CCOCCn1c(=O)c2c(nc3n(-c4ccccc4)c(-c4ccccc4)cn23)n(C)c1=O | i
CCOC(=O)c1ccc(-n2c(C)cn3c4c(=O)n(C(C)C(C)=O)c(=O)n(C)c4nc23)cc1 (centres undefined) | i
COc1ccccc1NC(=O)CCc1ccc(-c2ccc(Cl)cc2)o1 | i
O=S(=O)(NCCOc1ccc2c(c1)OCO2)c1ccc(-c2ccccc2)cc1 | i

# Additional results
Structure | GIRK2 activ
COc1ccc(NC(=O)C(=O)NCCC2CCCCN2S(=O)(=O)c2ccc(F)cc2)cc1 (centres undefined) | i
CC(=O)Nc1ccc(NC(=O)/C=C/C2=Cc3ccccc3OC2)cc1 | i
CSCC(C)(O)CNC(=O)c1cccc2ccccc12 (centres undefined) | i
COC(=O)c1ccc(NC(=O)Cc2cc(=O)[nH]c(SCc3cccc(OC)c3)n2)cc1 | i
CC(NC(=O)c1coc(NC(=O)C2CCC2)n1)c1ccccc1 (centres undefined) | i
Cc1nc2sc(C)c(C)n2c(=O)c1NC(=O)c1ccc(-c2ccccc2)cc1 | i
C=CCNC(=O)Cn1c(=O)c2oc3ccccc3c2n(Cc2cccc(F)c2)c1=O | i
CCSc1nnc(NC(=O)CN2CCN(CC(=O)c3cccs3)CC2)s1 | i
O=C(Cn1ncn2nc(-c3ccccc3)cc2c1=O)N1CCN(c2ccc(F)cc2)CC1 | i
CC(=O)N1CCC(C(=O)NCC#CCOc2ccc3c(c2)OCO3)CC1 | i

# Next part
Structure | GIRK2 activ
CCCn1c(=O)c2c(nc3n(-c4cccc(OC)c4)c(C)c(C)n23)n(C)c1=O | i
O=C(c1csc(-n2cccc2)n1)N1CCCC1 | i
Cc1ccc(CC(=O)N2CCN(c3nc4ccc(S(C)(=O)=O)cc4s3)CC2)c(C)c1 | i
COc1ccccc1OCCCn1c(CO)nc2ccccc21 | i
COc1cc(C)c(Br)cc1S(=O)(=O)N1CCN(CCO)CC1 | i
Cc1noc(Cn2c(=O)c3ccccc3n(CC(=O)Nc3ccc(C(C)C)cc3)c2=O)n1 | i
O=C(NCC1CCCO1)c1coc(NC(=O)C2CC2)n1 (centres undefined) | i
Cc1ccc(CNC(=O)C(=O)NCC2CCN(C(C)C)CC2)cc1 | i
CCCCCn1c(=O)c2c(nc3n2CCCN3c2ccc(OC)cc2OC)n(C)c1=O | i
CCOC(=O)c1oc2cc(OC(=O)N3CCOCC3)ccc2c(=O)c1-c1nc2ccccc2s1 | i

# New compounds follow:
Structure | GIRK2 activ
O=C(NCCc1ccoc1)c1cccc(Br)c1 | i
Cc1cc(=O)n2c(-c3cccc(NC(=O)c4ccc(Cl)cc4Cl)c3)csc2n1 | i
O=C(c1ccc2nsnc2c1)N1CCC(CSc2ccccn2)CC1 | i
Cn1cccc(C(=O)OC2CN(c3nc4c(F)cc(F)cc4s3)C2)c1=O | i
Cc1ccc(S(=O)(=O)N2CCCC(c3nnc(-c4cccs4)o3)C2)s1 (centres undefined) | i
COc1ccc(OC)c(-c2cc(C(=O)NCCc3nc(-c4ccco4)cn3C)n(C)n2)c1 | i
COC(=O)c1cc(OCc2ccccc2Cl)c2ccccc2n1 | i
O=C(Cn1nc(C2CC2)n(-c2ccccc2)c1=O)NCc1ccc2c(c1)OCO2 | i
O=C(Nc1nc(C(=O)NCCc2cccs2)co1)c1ccccc1 | i
CC(=O)Nc1ccc(S(=O)(=O)N2CCN(c3cc(-n4cccc4)ncn3)CC2)cc1 | i

# Retrieved by structure from the list above:
Structure | GIRK2 activ
Cc1cc(=O)n2c(-c3cccc(NC(=O)c4ccc(Cl)cc4Cl)c3)csc2n1 | i
O=C(c1ccc2nsnc2c1)N1CCC(CSc2ccccn2)CC1 | i
COC(=O)c1cc(OCc2ccccc2Cl)c2ccccc2n1 | i

# Continued:
Structure | GIRK2 activ
CC(=O)Nc1ccc(N/C=C(/C#N)c2nc(-c3ccc(OC(C)=O)cc3)cs2)cc1 | i
N#CCN1CCC(COCc2ccc(Cl)cc2)CC1 | i
N#C/C(C(=O)Nc1cc(Cl)ccc1Cl)=C1/SC(Cc2ccccc2)C(=O)N1c1ccccc1 (centres undefined) | i
CCC(=O)Nc1ccc(Cn2cnc(C(=O)Nc3cccc(Cl)c3C)c2)cc1 | i
CCCCC/C=C\C/C=C\C/C=C\C/C=C\CCCC(=O)O[C@H](COCCCCCCCCCCCCCCCC)COP(=O)([O-])OCC[N+](C)(C)C | i
CCOC(=O)c1c(NC(=O)CSc2nc3[nH]ncc3c(=O)n2-c2ccccc2)sc(C)c1C | i
Cn1nc(CNC(=O)C(C)(C)Oc2ccc(Cl)cc2)cc1C1CC1 | i
O=C(NCc1cccs1)c1cc(OCc2ccccc2)no1 | i
Cc1ccc(S(=O)(=O)Nc2ccc3c(c2)CCCN3S(=O)(=O)c2ccccc2)c(C)c1 | i
COc1cc2[nH]c3c(=O)n(CC(=O)NCC4CC4)cnc3c2cc1OC | i

# Remaining list, next part.
Structure | GIRK2 activ
CS(=O)(=O)c1ccc2nc(N3CCN(C(=O)c4cc(Cl)sc4Cl)CC3)sc2c1 | i
CC(C)(C)c1cc(C(=O)CCN2CCOCC2)cc(C(C)(C)C)c1O | i
C/C=C/C=C/C(O)=C1C(=O)[C@]2(C)C3C(=C(O)/C=C/C=C/C)C(=O)C4(C)C1[C@]1(C)O[C@@]4(O)[C@@]3(C)O[C@@]12O | i
CCc1ccc(-c2nc3c(c(=O)[nH]2)Cc2cccc(C)c2O3)cc1 | i
O=C(Nc1cnc(N2CCN(c3ccccn3)CC2)nc1)c1ccncc1 | i
COc1cccc(C(=O)Nc2cccc(-n3c(C)nc4ccccc4c3=O)c2)c1 | i
COc1ccc(OCC(=O)N2CCc3cc(S(=O)(=O)NC4CCCC4)ccc32)cc1 | i
Cc1c(Cl)cccc1S(=O)(=O)Nc1ccc2c(c1)C(=O)NCC2 | i
CCOc1cc(C(=O)NCC2(c3ccc(F)cc3)CC2)cc(OCC)c1OCC | i
CC(C)c1cc(=O)[nH]c(-n2nc(-c3cccs3)cc2NC(=O)C(C)(C)Oc2ccc(Cl)cc2)n1 | i

# Later entries.
Structure | GIRK2 activ
COc1ccccc1/C=C/C(=O)Nc1sc2c(c1C(N)=O)CCC(C)C2 (centres undefined) | i
CC(C)C(=O)N1CCCc2ccc(NC(=O)C(=O)NCc3ccsc3)cc21 | i
COc1cc(NC(=O)c2ccsc2)ccc1N1CCCC1=O | i
O=C(Cn1nc(C(=O)N2CCOCC2)cc1-c1cccs1)Nc1cccnc1 | i
O=C(CCCn1c(=S)[nH]c2cc3c(cc2c1=O)OCO3)NCCCN1CCOCC1 | i
Cc1nc(C)c(-c2ccc(=O)n(CCNC(=O)Cc3noc4ccccc34)n2)s1 | i
Cc1cc(N2CCN(C(=O)c3ccco3)CC2)n2nc(C)c(-c3ccccc3)c2n1 | i
CC(=O)Cn1c(C)cn2c3c(=O)n(C)c(=O)n(C)c3nc12 | i
COc1cccc(NC(=O)NCC#CCN(C)C)c1OC | i
C#CC(C)(CC)OCC(O)CN1CCN(CCO)CC1 (centres undefined) | i

# (cont.)
Structure | GIRK2 activ
CCc1ccc(S(=O)(=O)Nc2ccc3c(c2)N(S(=O)(=O)c2ccccc2)CCC3)cc1 | i
COc1ccccc1NC(=O)Cc1csc(Nc2ncccn2)n1 | i
CSc1cccc(NC(=O)CSc2nc3c(sc(=S)n3-c3ccccc3C)c(=O)[nH]2)c1 | i
CCCCCn1c(=O)c2ccccc2n(Cc2nc(-c3ccc(OCC)c(OC)c3)no2)c1=O | i
O=C(Nn1cnc2c(cnn2-c2cccc(Cl)c2)c1=O)c1ccccc1Br | i
Cc1cccc(C(=O)N2CCOCC2CO)c1 (centres undefined) | i
O=C(C1=C(O)C(=O)N(c2nc3ccc(F)cc3s2)C1c1ccccc1)c1cccs1 (centres undefined) | i
COc1cc(CNC(=O)Cc2sc(C)nc2C)cc(OC)c1OC | i
O=C(c1cnn2c1OCCC2)N1CCN(c2cccc(C(F)(F)F)c2)CC1 | i
Cc1ccc(NC(=O)CSC2=NS(=O)(=O)c3ccccc3N2Cc2ccccc2)cc1 | i

# The listing continues.
Structure | GIRK2 activ
CCN(CC)C(=O)Cn1cc(C(=O)C(=O)N2CC(C)OC(C)C2)c2ccccc21 (centres undefined) | i
Cc1c(C(=O)N2CCN(c3ncccn3)CC2)nnn1-c1nc(-c2ccccc2)cs1 | i
CCCc1cnc2c(c1SC(C)C(=O)OC)c(=O)n(C)c(=O)n2C (centres undefined) | i
CC(C)Oc1ccc2c(=O)c3cc(C(=O)O)ccc3oc2c1 | i
CCOCC(=O)NC(C)Cc1ccco1 (centres undefined) | i
O=C(CSc1nc(-c2ccccc2)c2ccccc2n1)N1CCOCC1 | i
CCOC(=O)C1CCN(c2cc(-c3nc(-c4ccccc4)no3)c3ccccc3n2)CC1 | i
COc1ccc(Oc2c(C)oc3c4c(ccc3c2=O)OCN(CC2CCCO2)C4)cc1 (centres undefined) | i
Cn1c(=O)c2c(nc3n2CC(c2ccccc2)=NN3CCN2CCc3ccccc3C2)n(C)c1=O | i
O=C(NC1CC(=O)N(c2ccccc2)C1)c1cccc(C(F)(F)F)c1 (centres undefined) | i

# Molecules shown so far containing a tert-butyl group:
Structure | GIRK2 activ
CCOc1ccc(-c2noc(CN3C(=O)COc4cc(C(C)(C)C)ccc43)n2)cc1 | i
CC(C)(C)c1cc(NC(=O)C2(c3ccccc3)CCOCC2)on1 | i
CC(C)(C)c1cc(C(=O)CCN2CCOCC2)cc(C(C)(C)C)c1O | i

# Returning to the listing with the five entries that preceded the break.
Structure | GIRK2 activ
O=C(CSc1nc(-c2ccccc2)c2ccccc2n1)N1CCOCC1 | i
CCOC(=O)C1CCN(c2cc(-c3nc(-c4ccccc4)no3)c3ccccc3n2)CC1 | i
COc1ccc(Oc2c(C)oc3c4c(ccc3c2=O)OCN(CC2CCCO2)C4)cc1 (centres undefined) | i
Cn1c(=O)c2c(nc3n2CC(c2ccccc2)=NN3CCN2CCc3ccccc3C2)n(C)c1=O | i
O=C(NC1CC(=O)N(c2ccccc2)C1)c1cccc(C(F)(F)F)c1 (centres undefined) | i
O=C(CCN1C(=O)c2ccccc2S1(=O)=O)N1CCOCC1 | i
CC(=O)N1CCN(C(=O)C23CC4CCC(CC(C4)C2)C3)CC1 | i
Cn1cc(C(=O)N2CCCC2)cc(NC(=O)C23CC4CC(CC(C4)C2)C3)c1=O | i
CC(C)(C)C1=NN(S(=O)(=O)c2ccccc2)C(c2ccc(Br)cc2)C1 (centres undefined) | i
Cc1ccc(OCC(O)Cn2c(N3CCCCC3)nc3c2c(=O)n(C)c(=O)n3C)cc1 (centres undefined) | i
O=C(NCCN1CCOCC1)N(c1ccccc1)c1ccccc1 | i
CCS(=O)(=O)NCCNc1cc(Nc2ccccn2)nc(C)n1 | i
CCCN1CCCc2cc(CCNC(=O)C(=O)Nc3ccc(C(C)C)cc3)ccc21 | i
CCC(=O)Oc1ccc2c(=O)c(-c3ccc(OC)cc3)c(C)oc2c1 | i
